Six1-Eya2 inh = blocks human Six1 binding to Eya2 | activity change, % (test concentration not listed) | AlphaScreen GST-Six1/His-Eya2 binding, biochemical; active compounds read low; control for the full effect not named in the record | 360,000 tested, 0.56% active | Q15475+O00167; in the data active = activity change below about -65%; inconclusive = about -30% to -65%; inactive = above about -30%; also: % is scaled to controls: 0 for no effect and ±100 for the full control effect
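AlphaScreen with GST-Six1 and His-Eya2 (5X mix: 250 nM and 500 nM), glutathione donor and nickel acceptor beads; buffer 50 mM Tris pH 8.0, 300 mM NaCl, 1 mM TCEP; 1 h at 37 C in the dark.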
PINK1 expr mod = changes PINK1 expression; PINK1 immunofluorescence, high-content cytometry, 24 h; Potency, µM (titrated, usually from 76.6 µM), without a hit: at the top dose activation (PINK1 increase), most hits filed as activators; 410,000 tested, 0.2% active; active = well fitted activation curve with a large enough effect; inconclusive = small, poorly fitted or top-dose-only effect; inactive = flat fitted curve, though single readings scatter; cell line not stated here;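 also: potency is read from the fitted curve at half-maximal effect; % of control where 0% means no effect; nearly all actives have a fitted effect of over 65% in size; a mitochondrial uncoupler was the plate control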
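Decision-based qHTS: stable cells, 24 h exposure to five compound concentrations, CCCP as control. Fixed cells stained for PINK1 plus nuclear, mitochondrial and cell markers, cytometer read.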
D2 agonist = human D2 receptor agonism in beta-arrestin assay; AID 624465; activation, % (concentration not given with the values); DiscoveRx PathHunter D2 beta-arrestin, luminescence, 90 min; 100% = 57 uM dopamine signal; 360,000 tested, 0.084% active; in the data active = activation above about 40%; inconclusive = about 15% to 40%; inactive = below about 15%; also: compound concentration not given in the record; the text of the record calls up to 30% inactive
Target sequence (P14416 whole entry, looked up): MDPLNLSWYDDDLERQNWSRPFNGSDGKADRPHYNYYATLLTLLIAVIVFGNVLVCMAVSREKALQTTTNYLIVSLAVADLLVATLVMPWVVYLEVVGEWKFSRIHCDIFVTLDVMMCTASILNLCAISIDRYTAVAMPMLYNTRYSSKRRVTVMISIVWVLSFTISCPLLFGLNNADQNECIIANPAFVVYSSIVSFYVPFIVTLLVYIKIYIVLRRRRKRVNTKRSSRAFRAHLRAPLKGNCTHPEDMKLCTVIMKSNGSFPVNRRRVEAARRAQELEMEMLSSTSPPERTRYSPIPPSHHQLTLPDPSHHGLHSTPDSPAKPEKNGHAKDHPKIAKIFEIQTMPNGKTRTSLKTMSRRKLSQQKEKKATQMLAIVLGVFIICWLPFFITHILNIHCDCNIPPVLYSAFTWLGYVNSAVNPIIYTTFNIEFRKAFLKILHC
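DiscoveRx PathHunter D2 beta-arrestin cells (2,100/well) attached overnight, then compound-stimulated 90 min at 37 C in HBSS/10 mM HEPES/0.1% Tween-20 buffer; beta-galactosidase complementation read by luminescence after 1 h at ambient temperature. Dopamine 57 uM final (EC100) as control.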
D2 PAM = positive allosteric modulators of human D2 dopamine receptor | P14416 | DiscoveRx D2 beta-arrestin cells, luminescence, 90 min; 100% = 57 uM dopamine signal | potentiation, % (test concentration not listed) | 360,000 tested, 0.23% active | AID 624464; active = potentiation of 50% or more; inconclusive = 30% to 50%; inactive = 30% or less;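 also: compound concentration not given in the record; tested on top of an EC20 dose of dopamine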
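D2 cells co-treated with compound plus 50 nM dopamine (EC20) for 90 min at 37 deg C to detect potentiation. Beta-arrestin recruitment was read as enzyme-fragment luminescence after 1 h at ambient temperature. Full response was set by 57 uM dopamine.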
TRPML1 ag = human mucolipin-1 channel agonism; activation, % (concentration not given with the values); 410,000 tested, 0.12% active; TRPML1-expressing cells, Ca2+ dye fluorescence, FDSS; host cell line not named in the record; reference of the full effect not given here; in the data active = activation above about 50%; inconclusive = about 30% to 50%; inactive = below about 30%; also: 0% is about no effect; the text of the record puts the active cut at 80%
Target sequence (Q9GZU1 whole entry, looked up): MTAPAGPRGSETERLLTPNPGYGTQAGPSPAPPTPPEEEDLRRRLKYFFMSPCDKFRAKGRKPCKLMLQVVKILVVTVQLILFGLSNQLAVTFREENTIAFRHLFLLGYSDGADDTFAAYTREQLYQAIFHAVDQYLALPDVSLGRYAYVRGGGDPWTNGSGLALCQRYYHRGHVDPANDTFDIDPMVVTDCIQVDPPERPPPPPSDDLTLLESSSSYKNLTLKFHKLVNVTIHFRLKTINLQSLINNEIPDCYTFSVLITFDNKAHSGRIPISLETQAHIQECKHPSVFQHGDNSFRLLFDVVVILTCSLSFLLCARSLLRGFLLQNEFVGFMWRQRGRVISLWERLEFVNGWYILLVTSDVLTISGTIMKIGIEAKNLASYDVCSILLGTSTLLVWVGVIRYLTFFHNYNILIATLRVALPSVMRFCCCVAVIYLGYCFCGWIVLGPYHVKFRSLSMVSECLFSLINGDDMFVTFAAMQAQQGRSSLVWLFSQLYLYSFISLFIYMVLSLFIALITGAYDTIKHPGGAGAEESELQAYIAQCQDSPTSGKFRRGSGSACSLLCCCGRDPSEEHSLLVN
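Kinetic FDSS Ca2+ read in Tet-induced TRPML1-DL cells (ABD Ca8 dye plus quencher, 45-90 min RT loading): baseline, then compound, then 110 s agonist window; EC80 agonist 54-4 at 4uM final added afterwards for a 110 s antagonist window.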
TRPML1 blocker = inhibitors of human TRPML1 channel; AID 624415; Q9GZU1; TRPML1-inducible cells, Ca2+ dye fluorescence, FDSS; active compounds read low; inhibition of EC80 agonist-evoked calcium signal; activity change, negative = inhibition, % (no concentration beside the values); 390,000 tested, 0.02% active; in the data active means activity change below about -50%; inconclusive means about -30% to -50%; inactive means above about -30%;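 also: stimulus is agonist 54-4 at its EC80 concentration; % is scaled to controls: 0 for no effect and ±100 for the full control effect; compound concentration not given in the record; the text of the record puts the active cut at -80%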
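TRPML1-DL cells, Tet-induced overnight (~16 h, 37 °C) at 1,500 cells/well, were loaded with Ca8 no-wash dye plus quencher for 45-90 min at room temperature. Compounds were pinned during FDSS kinetic reading; agonist 54-4 at EC80 (4 uM final) then added.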
* = called active by the depositor; ? = inconclusive; . = no result given; [ ] = another dose, or the depositor's remark. Hits appear at their usual frequency; overall some 1% were active at least once.

smiles	D2 agonist	D2 PAM	TRPML1 ag	TRPML1 blocker	Six1-Eya2 inh	PINK1 expr mod
COc1cc(CN2C(=O)C(NC(=O)c3ccco3)(C(F)(F)F)C3=C2CC(C)(C)CC3=O)cc(OC)c1 (stereo not given)	-1.7	4	2.2	-2	-4	-0.8%
COC(=O)c1ccccc1NC(=O)COC(=O)/C=C/c1cccs1	-1.9	-13	3.2	2	2	3.0%
O=C(NC(N1CCOCC1)C(Cl)(Cl)Cl)c1ccccc1Cl (stereo not given)	0.2	-4	-0.5	5	-20	1.5%
Cc1ccc(S(=O)(=O)N(CC(=O)Nc2cccc([N+](=O)[O-])c2)C2CCCCC2)cc1	-4.2	-16	-0.3	13	-20	7.1%
CC(=O)Nc1ccc(S(=O)(=O)NCCc2ccc(F)cc2)cc1	4.5	3	-0.6	-5	5	-0.9%[38.3 µM]
CC(C)c1onc(C(=O)Nc2ccc3c(c2)OCO3)c1[N+](=O)[O-]	5.6	-7	-0.2	-11	-2	0.3%
COc1ccc(NC(=O)CCN2CCCCCC2)c(OC)c1	0.1	-22	0.5	18	4	-6.4%[38.3 µM]
CN(CC(=O)Nc1ccc(F)cc1)c1ccc(S(=O)(=O)N2CCCC2)cn1	-0.5	-5	-0.1	42	-4	0.0%
CC1(C)C(=O)Nc2ccccc2N1C(=O)COC(=O)c1cc(Cl)cc(Cl)c1	0.5	0	1.5	-14	-8	7.2%
O=C(c1noc2c1CCCCC2)N1CCN(C(c2ccccc2)c2ccccc2)CC1	0.4	-3	.	.	9	-0.5%

3 records picked at random from the list so far, as already listed:
smiles	D2 agonist	D2 PAM	TRPML1 ag	TRPML1 blocker	Six1-Eya2 inh	PINK1 expr mod
COc1cc(CN2C(=O)C(NC(=O)c3ccco3)(C(F)(F)F)C3=C2CC(C)(C)CC3=O)cc(OC)c1 (stereo not given)	-1.7	4	2.2	-2	-4	-0.8%
CC1(C)C(=O)Nc2ccccc2N1C(=O)COC(=O)c1cc(Cl)cc(Cl)c1	0.5	0	1.5	-14	-8	7.2%
COC(=O)c1ccccc1NC(=O)COC(=O)/C=C/c1cccs1	-1.9	-13	3.2	2	2	3.0%

Next section:
smiles	D2 agonist	D2 PAM	TRPML1 ag	TRPML1 blocker	Six1-Eya2 inh	PINK1 expr mod
CCOC(=O)c1c(N)sc2c1CCSC2	-1.5	-8	-0.1	-2	-9	0.2%
Cc1ccc(C(=O)C(OC(=O)CN2C(=O)c3ccccc3C2=O)c2ccccc2)cc1C (stereo not given)	-2.0	-6	0.5	-6	0	0.1%[38.3 µM]
N#CCC(=O)NNC(=S)Nc1ccccc1C(F)(F)F	-0.9	-3	-0.2	-4	5	1.9%
O=C(CCn1c(=O)sc2ccccc21)NC1=NCCS1	-0.6	16	0.4	-3	4	.
COc1ccc(Cn2c(N)c(C#N)c3nc4ccccc4nc32)cc1	-1.7	-12	-0.4	16	-8	-1.9%
Oc1ccc(-c2cn3cc(C(F)(F)F)ccc3n2)cc1	-0.5	-3	-0.3	-8	1	-2.2%
Cc1cc(Br)ccc1NC(=O)c1sc2nc3n(c(=O)c2c1C)CCCC3	.	.	-0.8	-2	.	1.1%
CC(C)[N+]1=C2C=CC=CC=C2SC12C([N+](=O)[O-])=CC(=[N+]([O-])[O-])C=C2[N+](=O)[O-] (stereo not given)	2.4	2	-0.5	5	0	7.1%
Cc1nn2c(N3CCN(C)CC3)c3c(nc2c1-c1ccccc1)CCCC3	-0.5	-12	0.1	8	16	-2.7%
O=C(NCc1nc2ccccc2[nH]1)c1ccc(Cl)c(S(=O)(=O)N2CCCC2)c1	-1.4	-32	-0.3	-3	-7	0.7%

(continued)
smiles	D2 agonist	D2 PAM	TRPML1 ag	TRPML1 blocker	Six1-Eya2 inh	PINK1 expr mod
COc1cccc(CNC(=O)[C@@H]2CCCN2C(=O)[C@H]2CCCCN2C(=O)c2cccc3ccccc23)c1	.	.	-0.5	.	10	1.0%
CCSc1nc(C)c(CC)c(C)c1C(N)=O	-1.0	-11	1.3	-3	11	-2.5%
Cc1nn(C)cc1S(=O)(=O)N1CCN(Cc2ccc(F)cc2Cl)CC1	-4.4	-6	-0.5	0	2	0.5%
COc1cc(/C=C2\CC/C(=C\c3cc(OC)c(O)c(OC)c3)C2=O)cc(OC)c1O	4.2	-6	2.5	13	-8	1.8%
Cc1ccc(S(=O)(=O)C(CNC(=O)COc2ccccc2)c2ccco2)cc1 (stereo not given)	.	.	0.7	-8	.	0.3%
O=C(Nc1ccc2ccccc2c1)c1cn(-c2ccccc2)nc1-c1cccs1	-3.0	-15	1.3	-3	-2	4.7%[38.3 µM]
O=C(C1=C[C@@H](C2CCCCC2)C[C@@H](OCc2ccc(CO)cc2)O1)N1CCOCC1	1.0	5	-0.8	-19	27	0.4%
CC1(C)NC(=O)N(CC(O)CN(c2cccc([N+](=O)[O-])c2)S(=O)(=O)c2ccccc2)C1=O (stereo not given)	-1.0	3	0.3	7	9	-1.6%
CC1CCC(NC(=O)CN2CCC(n3nnc4cc(F)ccc43)CC2)CC1 (stereo not given)	-1.8	-39	0.0	3	2	-1.4%
CCCCc1nc2ccccc2c(=O)n1NC(=O)c1c(O)c2c(n(CC(C)C)c1=O)CCCC2	-5.4	-19	0.1	21	0	4.7%

New compounds follow
smiles	D2 agonist	D2 PAM	TRPML1 ag	TRPML1 blocker	Six1-Eya2 inh	PINK1 expr mod
Cc1cccc(C)c1NC(=O)c1ccc(-n2cnnn2)cc1	-1.1	10	0.3	4	4	-2.9%
CC1(C)C(c2cccs2)=[N+]([O-])C2(CCCCC2=O)N1O (stereo not given)	-4.3	-2	4.0	25	-1	-0.4%
Cc1ccc(CNC(=O)CCCc2c[nH]c3ccccc23)cc1	-1.2	-6	1.4	-10	-4	-1.0%
CC1CCCN(C(=O)COC(=O)c2ccc3[nH]c4c(c3c2)CCCC4)C1 (stereo not given)	4.2	7	2.5	-1	-23	-1.8%
CCCCS(=O)(=O)N1CCC(C(=O)NCC2CCCO2)CC1 (stereo not given)	-4.6	-2	0.2	-2	3	-0.5%
COC(=O)c1ccc(Oc2c(C)oc3cc(OCc4cnn(-c5ccccc5)c4)ccc3c2=O)cc1	-0.5	-11	-0.6	-1	8	10%
CC1=C(C(=O)Nc2ccccc2)C(c2ccc(Br)cc2)n2nc(CCCO)nc2N1 (stereo not given)	.	.	-0.5	11	.	1.6%
Cc1ccc(-n2nc3c(=O)n(CCCC(=O)NCCc4ccccc4Cl)nc(C)c3c2C)cc1	.	.	3.0	-17	.	0.6%
O=C(CCN1C(=O)c2ccccc2C1=O)Nc1ccc(S(=O)(=O)N2CCOCC2)cc1	4.2	3	1.4	-1	2	6.2%[38.3 µM]
CSc1nc(C2CC2)cc(-c2cccs2)c1C#N	-4.1	-9	1.3	-6	14	.

Additional entries follow.
smiles	D2 agonist	D2 PAM	TRPML1 ag	TRPML1 blocker	Six1-Eya2 inh	PINK1 expr mod
Cc1nc(C)c(CCNS(=O)(=O)c2ccc(F)cc2)s1	.	.	1.8	-3	.	1.0%
CCCCCC(=O)Nc1nc(C)c(-c2csc(Nc3ccccc3OC)n2)s1	-0.6	-10	0.4	-2	-11	2.6%
O=C1NC(=Nc2ccccc2Br)SC1(CO)CO	3.0	0	-0.5	12	0	0.3%
COc1ccc(NC(=O)c2cc(-c3ccco3)nc3ccccc23)cn1	-0.4	-1	-0.3	-5	-27	14%
CC(C)(C)c1ccc(/C=C2\Oc3cc(OC(=O)N4CCOCC4)ccc3C2=O)cc1	?	?	-0.5	2	-10	20%
CCN(C(=O)CCCCC(=O)N(CC)c1ccccc1)c1ccccc1	-2.1	0	2.0	-7	14	0.7%
CC(Sc1nnc(Cc2ccc([N+](=O)[O-])cc2)o1)C(N)=O (stereo not given)	-1.2	1	-0.1	-2	-9	.
Cc1ccc(S(=O)(=O)N(C)C)cc1NC(=O)c1ccc(OC(F)(F)F)cc1	-7.0	-11	0.2	3	-1	8.8%
COc1cccc(=O)c2c(C)n(-c3cc(C)cc(C)c3)c(C)c12	-4.0	-1	1.2	-7	-5	0.9%
COc1ccc(CCNc2nc(-c3sc(N)nc3C)cs2)cc1OC	2.4	-14	-0.4	12	?	2.5%

Next results
smiles	D2 agonist	D2 PAM	TRPML1 ag	TRPML1 blocker	Six1-Eya2 inh	PINK1 expr mod
O=C(COc1ccc(F)c(Cl)c1)c1ccc[nH]1	0.4	1	-0.9	18	-1	-0.7%
C[C@@H](NC(=O)c1[nH]cnc1C(=O)Nc1cccc(Cl)c1)c1ccccc1	-2.7	-5	1.4	17	0	3.0%
O=C(CN1CCSC1=O)N1CCN(S(=O)(=O)c2ccc(F)cc2)CC1	-1.1	0	0.0	-9	9	0.9%
COc1ccc(S(=O)(=O)N(CC(=O)NCc2cccnc2)Cc2ccccc2)cc1	-4.8	7	-0.4	-18	8	1.4%
CCN(CC)CCNC(=O)c1cn(CC)c2ccc(S(=O)(=O)N(C)C)cc2c1=O	3.7	-1	0.1	5	3	-0.6%
CCCC(=O)Nc1c(-c2ccccc2Cl)c(=O)c2ccccc2n1C	-0.6	1	0.8	-6	-3	0.9%
O=C(COc1ccc([N+](=O)[O-])cc1Cl)N(C1CCCCC1)C1CCS(=O)(=O)C1 (stereo not given)	-2.6	-9	1.5	4	-2	3.4%
O=C(Cc1cccc2ccccc12)NCC(=O)N1CCN(Cc2cccc(C(F)(F)F)c2)CC1	5.6	-10	1.0	-4	-14	4.8%
CCCn1nnc(NC(=S)NC(=O)c2ccccc2OC)n1	-5.0	-8	-1.0	-3	1	1.8%
CCOC(=O)c1ccc(Oc2nc(NC)nc(SC)n2)cc1	3.1	-8	1.7	-9	-2	5.6%[38.3 µM]

The results go on:
smiles	D2 agonist	D2 PAM	TRPML1 ag	TRPML1 blocker	Six1-Eya2 inh	PINK1 expr mod
O=C(COC(=O)/C=C/c1ccc(S(=O)(=O)N2CCOCC2)cc1)NCc1ccc(Cl)cc1	-5.2	-14	-0.2	-1	-1	6.9%
O=C1CC(NS(=O)(=O)c2cccnc2)CN1c1ccc(Cl)cc1 (stereo not given)	2.5	3	0.3	9	2	1.6%
S=C(Nc1cccc(Cl)c1Cl)N1CCC2(CC1)OCCO2	-2.4	-3	-0.3	-21	5	1.7%
O=C(c1nc2ccccn2c1CNCCn1ccc2ccccc21)N1CCOCC1	-2.1	-17	0.6	-7	-2	0.6%
CCCNC(=O)c1cc(Cl)c(NC(=O)C2=CSCCO2)cc1OC	2.2	-4	-1.5	10	-7	0.8%
CCOP(=O)(OCC)/C(=C/N1CCCCC1)NC(=O)c1ccccc1	-3.1	-6	0.6	1	-2	0.3%
CC(C)NC(=O)c1cc(C2CCCCN2S(=O)(=O)c2ccc(C#N)cc2)on1 (stereo not given)	-2.8	-4	-0.1	-13	3	-1.1%

From PubChem BioAssay
